Screens deposited in PubChem BioAssay by National Center for Advancing Translational Sciences (NCATS).
Rango complex inh: qHTS Assay for Inhibitors of Rango (Ran-regulated importin-beta cargo) - Importin beta complex formation; Potency, µM (top dose mostly 92.2 µM), without a hit: at the top dose inhibition of complex formation; Rango CFP/YFP FRET sensor + importin beta, 45 min; Importin subunit beta-1 (Homo sapiens), Q14974; hit rate 0.031% among 340,000; active = rising FRET ratio curve, often small or poorly fitted; inconclusive = mostly compound fluorescence or quenching in the first reads; inactive = flat curves in all reads;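 also: potency is read from the fitted curve at half-maximal effect; 0% = DMSO wells and 100% = buffer wells lacking importin beta; nearly all actives have a fitted effect of over 15% in size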
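FRET biosensor (snurportin 1 IBB flanked by EYFP and cerulean), 50 nM, with compound 5 min, then 0.125 microM importin beta in PBS, 1 mM DTT, 0.02% Tween-20, 0.1% BSA. CFP/YFP ratio read after 45 min at room temperature; pre-read flags interference.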
miR-21 FLuc: qHTS Assay for Modulators of miRNAs and/orActivators of miR-21; 340,000 tested, under 10 active; Potency, µM (series often up to 38.3 µM), for the others: top-dose reporter change, positive = more light; HeLa miR-21 FLuc reporter, luciferase, 48 h; active = well fitted rising curve with a large enough effect; inconclusive = small, poorly fitted or top-dose-only effect; inactive = no such curve, though single readings can be large or run the other way;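 also: % of control where 0% means no effect; miR-21 action dims this reporter so a rising signal means less miR-21 action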
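Luminescence from a firefly luciferase reporter carrying a miR-21 binding site downstream, stably expressed under a CMV promoter in HeLa cells that make miR-21 endogenously, reports miRNA modulation after 48 h compound exposure up to approximately 40uM final.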
Rango dissoc inh: qHTS Assay for Inhibitors of RanGTP induced Rango (Ran-regulated importin-beta cargo) - Importin beta complex dissociation. Biochemical FRET Rango-importin beta, RanGTP-induced dissociation. Potency, µM (top dose mostly 46.1 µM), for inactives: at the top dose activity change, negative = inhibition. hit rate 0.071% among 340,000. AID 540253, 2011; active means falling FRET ratio curve, often poorly fitted, with flat reads before Ran was added; inconclusive means other falling curves, or compound fluorescence or quenching; inactive means flat or rising ratio curve;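 also: potency is read from the fitted curve at half-maximal effect; % of control where 0% means no effect; nearly all actives have a fitted effect of over 45% in size; -100% = wells without RanGTP and RCC1; the record marks most hits as doubtful in a second field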
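FRET read at 45 min, room temperature: inhibitors block the CFP/YFP signal rise when RanGTP (0.6 uM Ran, 2 mM GTP, 0.2 uM RCC1) frees Rango (0.1 uM) from importin beta (0.25 uM). Pre-read after 5 min compound exposure flags interference.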
GLA inh pH 4.5: qHTS Assay for Inhibitors of Human alpha-Galactosidase at pH 4.5 | activity change, negative = inhibition, % at 105 µM | Alpha-galactosidase A (Homo sapiens), P06280 | purified enzyme, 4-MU-alpha-Gal fluorescence, pH 4.5 | AID 1467, 2008 | 230,000 tested, under 10 active; inconclusive = small, poorly fitted or top-dose-only inhibition, or a rising curve; inactive = flat fitted curve, though single readings scatter; no compound was filed as active;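 also: 0% = full activity with enzyme and -100% = basal without enzyme; dose as in the result columns while the protocol names 77 µM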
Target sequence (P06280 whole entry, looked up): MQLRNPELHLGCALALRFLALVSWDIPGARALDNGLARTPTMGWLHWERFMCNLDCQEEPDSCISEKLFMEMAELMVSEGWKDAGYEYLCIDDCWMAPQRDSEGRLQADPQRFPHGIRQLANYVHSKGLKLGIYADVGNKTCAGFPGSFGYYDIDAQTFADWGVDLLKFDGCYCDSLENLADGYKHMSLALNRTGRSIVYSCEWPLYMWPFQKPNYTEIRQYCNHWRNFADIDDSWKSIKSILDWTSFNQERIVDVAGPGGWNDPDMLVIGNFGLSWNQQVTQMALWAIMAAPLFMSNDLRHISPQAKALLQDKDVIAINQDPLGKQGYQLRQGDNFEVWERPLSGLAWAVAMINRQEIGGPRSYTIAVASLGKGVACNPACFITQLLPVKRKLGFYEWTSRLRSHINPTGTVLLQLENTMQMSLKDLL
* marks the source's active call; other numbers are inactive results; u = inconclusive; x = no result given; & = joins results of further samples; [ ] = another dose, or the depositor's remark. An excerpt; rates above refer to the full screens.

Below each compound: Rango complex inh	miR-21 FLuc	Rango dissoc inh	GLA inh pH 4.5
CC[C@@H]1C(c2ccccc2)=NN(c2ccc(Br)cc2)[C@H]1C(=O)N1CCOC1=O
→ u	x	3%	4
Cc1nn(CC(=O)NC2CCS(=O)(=O)C2)c(C)c1S(=O)(=O)N(C)C (stereo unspecified)
→ -4.3%	x	16%	x
CCc1nc2c(c(=O)c3ccccc3n2C)c(=O)n1-c1ccc(F)cc1
→ -0.9%	-14%	-3%	3
Nc1cc(Cl)ccc1Oc1ccccc1
→ 0.6%	-3%	8%	2
CCN(Cc1ccccc1)C(=O)COC(=O)Cc1c[nH]c2ccccc12
→ 5.0%	x	7%	x
COc1ccc(Br)cc1CN1CCN(C(=O)c2ccc(OC)c(OC)c2)CC1
→ -11%	-13%	-2%	4
COc1cccc(-c2noc(Cn3nc(C(=O)O)c4ccccc4c3=O)n2)c1
→ 6.9%	-23%	3%	x
COC(=O)c1cccc(NC(=O)c2nn(C)c(=O)c3ccccc23)c1
→ 7.8%	-19%	3%	-8
Cc1cccc(OCC(=O)Nc2ccc3c(c2)nc(CCN2CCCCC2)n3C)c1
→ 1.3%	-5%	-12%	x
O=C(Cn1cnc2sc3c(c2c1=O)CCCC3)NCC(=O)Nc1ccccc1F
→ -1.6%	1%	-7%	x
CCc1ccc(NC(=O)c2cccnc2)cc1
→ u	-44%	-10%	3
OC1CN=C2Sc3ccccc3N2C1 (stereo unspecified)
→ 0.5%	-12%	21%	7
COc1cccc(OC)c1C(=O)N1CCN(Cc2cccnc2)CC1
→ 0.1%	2%	-12%	x
Cc1cccc(-c2ccc3ncnc(NCc4cccs4)c3c2)c1
→ 1.1%	x	8%	x
COc1ccc(C(CNC(=O)c2cccc(S(=O)(=O)Nc3ccccc3Cl)c2)N2CCOCC2)cc1 (stereo unspecified)
→ -1.3%	x	-2%	x
Cc1ccccc1-c1n[nH]c(=S)n1Cc1ccccc1
→ 1.6%	0%	20%	1
CC(=O)c1sc(-c2ccccn2)nc1C
→ x	-12%	x	8
CCN1CCN(CC(=O)Nc2cc(C(F)(F)F)ccc2OCCOC)CC1
→ 1.0%	-8%	-5%	8
Cc1ccc(S(=O)(=O)N(C)C)cc1NC(=O)c1ccncc1
→ 3.8%	0%	-8%	-7
CCCCCCNC(=O)N[C@@H](C(=O)NCCC[C@H]1CN2C(=NC[C@@H]2Cc2ccccc2)N1CCc1cccc(OC)c1)C(C)C
→ -1.4%	11%	0%	-8
CCOc1ccccc1NC(=O)Nn1cnnc1
→ 1.6%	-5%	-18%	x
CC(=O)Nc1ccc(S(=O)(=O)N(C)CC(=O)OCC(=O)N(CC(C)C)C2CCS(=O)(=O)C2)cc1 (stereo unspecified)
→ -2.0%	x	-20%	x
O=S(=O)(/N=C/N1CCOCC1)c1ccc(Cl)cc1
→ 3.6%	-1%	-3%	-4
COc1ccc(C(=O)N/C(=C\c2cccc3ccccc23)C(=O)N2CCN(C)CC2)cc1OC
→ 2.4%	-7%	-2%	2
CC(=O)Nc1ccc(S(=O)(=O)NCc2ccc(C(=O)N3CCOCC3)cc2)cc1
→ 0.5%	-2%	12%	x
O=C(O)c1cccc(CSc2nc(-c3ccccc3)cc(C(F)(F)F)n2)c1
→ 2.7%	-5%	17%	-3
CS(=O)(=O)N(Cc1ccc(C(=O)NC2CCCC2)cc1)c1ccccc1
→ 2.7%	-1%	1%	4
Cc1ccc(C)c(N(C(=O)CS(=O)CC(=O)Nc2ccc3c(c2)OCO3)C(C)C(=O)NC2CCCC2)c1 (stereo unspecified)
→ 1.5%	-7%	-6%	-7
COc1ccc(OC)c(-c2cc(C(=O)Nc3c(C)nn(Cc4ccccc4C)c3C)no2)c1
→ -2.3%	4%	7%	-13
CCC(=O)NCC(c1ccco1)N1CCN(c2ccc(OC)cc2)CC1 (stereo unspecified)
→ 1.4%	1%	-1%	-1
COc1ccc(N2C(=O)CNC2=S)cc1
→ -9.6%	-3%	-27%	3
Cc1cc(NS(=O)(=O)c2ccc(NC(=S)NC(=O)c3ccc(F)cc3)cc2)no1
→ 1.8%	-19%	8%	-2
CCOC(=O)c1ccc(N2Cc3cc(C)c(C)cc3C2)cc1O
→ x	-18%	x	1
O=P(O)(O)CCP(=O)(c1ccccc1)c1ccccc1
→ -0.2%	-1%	-7%	-7
Cc1cccn2c(=O)c3cc(C(=O)N4CC(C)CC(C)C4)sc3nc12 (stereo unspecified)
→ 0.6%	-5%	-1%	x
Nc1nccc(SCc2ccccc2)n1
→ u	x	5%	x
O=C1c2ccccc2C(O)(Cc2ccccc2)N1Cc1ccco1 (stereo unspecified)
→ -1.9%	2%	-7%	3
CCOC(=O)C(C)Sc1nc(-c2ccccc2)nc2ccccc12 (stereo unspecified)
→ -1.4%	1%	7%	-5
COc1ccc(C(=O)Nc2cc(=O)[nH]c3ncnn23)cc1
→ -0.9%	-17%	-11%	0
CC(=O)N1CCN(C(=O)c2cc3c(s2)CCCC3)CC1
→ 0.8%	x	10%	x
COc1ccc(/C(C)=N/N=C(\C)c2ccc(OC)cc2OC)c(OC)c1
→ -3.6%	-5%	-1%	-5
O=C(Nc1ccnn1C1CCN(Cc2ccccc2OC(F)F)CC1)c1cccc(F)c1
→ -2.2%	6%	-2%	x
COc1ccc(CNC(=O)Cn2c(=O)oc3ccccc32)cc1OC
→ 2.0%	-5%	-9%	2
CCOC(=O)c1c2ccc(OCC(=O)N/N=C/c3ccccc3C(F)(F)F)cc2n2ccccc12
→ x	-6%	x	-2
CC(C)CCOc1ccc(C(=O)NNC(=O)CNC(=O)c2ccccc2F)cc1
→ -2.7%	x	7%	x
CC(OC(=O)c1cccnc1Cl)C(=O)Nc1ccc2c(c1)OCCO2 (stereo unspecified)
→ 2.6%	-2%	-2%	4
O=C(O)c1ccccc1C(=O)NCCc1ccc(Cl)cc1
→ -3.1%	-2%	-12%	0[21.1 µM]
COc1cc([N+](=O)[O-])ccc1NC(=O)C[n+]1ccccc1
→ -1.1%	2%	-9%	-4
COc1cccc(C(=O)NCCS(=O)(=O)N2CCc3ccccc3C2)c1
→ 1.2%	x	2%	x
O=C(Nc1cccc(S(=O)(=O)N2CCCC2)c1)c1ccc(Cl)nc1
→ -1.2%	x	-18%	x
CCOC(=O)c1ccc(NC(=O)CN2C(=O)C(CC)SC(CC)C2=O)cc1 (stereo unspecified)
→ 6.0%	-4%	-1%	-13
O=C(NCCc1ccccc1)C(=O)Nc1ccc([N+](=O)[O-])cc1
→ -1.6%	-2%	7%	10
Cc1cccc(N2C(=O)CC(Sc3nc(C)cc(C)n3)C2=O)c1 (stereo unspecified)
→ 0.1%	-6%	-7%	1
CCOC(=O)N1CCC(Nc2c(-c3ccccc3)c(=O)c2=O)CC1
→ u	0%	23%	7
COCCNC(=O)CSCc1nc(-c2ccc(SC)cc2)oc1C
→ 1.3%	0%	2%	4
C/C(N)=C(/C#N)C(=O)CSc1cc(Cl)ccc1Cl
→ -1.7%	-18%	1%	4
O=C(NNS(=O)(=O)c1ccc(F)cc1)c1cnccn1
→ -11%	-2%	-9%	-1
COCCN1C(=O)N[C@@H](c2ccccc2)C(C(=O)OC)=C1C
→ -0.3%	-1%	-1%	3&-1
CCNc1c(C(=O)O)ccc2c1C(=O)c1ccccc1C2=O
→ 0.1%	-3%	3%	0
C/C(CC(=O)NCc1ccco1)=N\NC(=O)c1ccc(Cl)cc1Cl
→ 4.1%	-5%	-3%	x

Three structures out of the list, ordered by formula weight, falling.
Below each compound: Rango complex inh	miR-21 FLuc	Rango dissoc inh	GLA inh pH 4.5
CCOC(=O)C(C)Sc1nc(-c2ccccc2)nc2ccccc12 (stereo unspecified)
→ -1.4%	1%	7%	-5
O=C(NCCc1ccccc1)C(=O)Nc1ccc([N+](=O)[O-])cc1
→ -1.6%	-2%	7%	10
COc1ccc(N2C(=O)CNC2=S)cc1
→ -9.6%	-3%	-27%	3

Remaining list, next part:
Below each compound: Rango complex inh	miR-21 FLuc	Rango dissoc inh	GLA inh pH 4.5
CCC(C)NC(=O)c1cc2c(=O)n3ccccc3nc2s1 (stereo unspecified)
→ u	-47%	-14%	x
COCCCNCCCCOc1cccc(Br)c1
→ 1.1%	-6%	41%	2
COc1ccc(NC(=O)CO/N=C/C(=O)Nc2ccccc2C)c([N+](=O)[O-])c1
→ -0.2%	x	-3%	x
Cc1cc(NC(=O)c2ccc3c(c2)C(=O)N(C2CCCCC2)C3=O)no1
→ -1.7%	-8%	7%	1
CCc1nc(SCc2nnc(-c3ccc(C)cc3)o2)c2c(C)c(C)sc2n1
→ -1.0%	x	-1%	x
COc1ccc2c(c1)C(=O)C(=O)N2CC1COc2ccccc2O1 (stereo unspecified)
→ 1.3%	2%	5%	x
COc1ccc(C(=O)O/N=C(\N)Cc2ccc(Cl)cc2)cc1OC
→ 0.2%	u	0%	-5
Cc1ccccc1NC(=O)C1CCCN(S(=O)(=O)c2cnc[nH]2)C1 (stereo unspecified)
→ -1.8%	0%	-6%	2
C/C(=N\Nc1ccccn1)c1ccc(OC(F)F)cc1
→ 4.2%	-41%	-11%	4
O=C(COc1ccccc1)Nc1nnc(-c2ccc3c(c2)CCCC3)o1
→ 0.4%	-59%	1%	3
CC(C)(C)[C@H]1C=C(C(N)=O)O[C@@H](OCCCCO)C1
→ u	-5%	11%	-1
CCOC(=O)c1c(CN2CCN(CCO)CC2)n(-c2ccccc2)c2cc(Br)c(O)cc12
→ -1.9%	26%	-2%	6
Cc1ccc(NC(=O)CN(C)C(=O)c2ccc(Cl)c(S(=O)(=O)NCc3ccco3)c2)cc1
→ 0.1%	x	-1%	x
O=C1CC(c2ccc(Cl)cc2)CC(O)=C1C=NCCO (stereo unspecified)
→ -0.6%	1%	2%	x
COc1ccc(NC(=O)/C=C/c2c(Cl)nc3ccccn23)cc1
→ -2.5%	-16%	7%	0
COc1ccc(CNC(=O)c2c(C)oc3c2C(=O)c2ccccc2C3=O)cc1
→ 5.3%	-5%	-5%	-4
COc1ccc(CCC(=O)N/N=C/c2ccc3c(c2)OCO3)cc1
→ -0.5%	x	17%	x
COc1cccc(CNC(=O)c2cccnc2Sc2ccc(Cl)cc2)c1
→ -4.2%	-6%	u	x
O=C(O)COCC(=O)NC1CCN(Cc2ccccc2)CC1
→ 0.0%	-1%	-10%	1
CCCCn1c(N)c(N(CC)C(=O)c2ccccc2C(F)(F)F)c(=O)[nH]c1=O
→ -1.1%	0%	4%	x
CCOC(=O)c1ccc2c(c1)nc(SCc1cn3ccsc3n1)n2CC
→ 1.1%	-19%	-8%	0
CN(C(=O)CN(c1ccccc1)S(=O)(=O)c1ccc(F)cc1)C1CCS(=O)(=O)C1 (stereo unspecified)
→ -0.9%	1%	-15%	3
CN1C(=O)/C(=C/c2cccc(Cl)c2)Sc2ccc(C(=O)N3CCOCC3)cc21
→ -2.1%	6%	5%	x
CC(=O)c1nn(-c2ccc(Cl)cc2)cc1C(=O)c1ccc(C)cc1
→ 0.2%	x	1%	x
CCC1CCCCN1CCCNC(=O)C1CC(=O)N(CCc2ccccc2)C1 (stereo unspecified)
→ -0.1%	1%	3%	x
COc1ccc(NS(=O)(=O)c2cc(NC(=O)COc3ccc(OC)cc3)ccc2N2CCOCC2)cc1
→ -1.4%	x	8%	x
CC(=O)c1cc(-c2ccccc2)n(CC(=O)N2CCC(N3CCCCC3)CC2)c1C
→ -0.6%	-5%	-5%	-2
CCN(CC)CCCNC(=O)c1ccccc1NC(=O)C1=CSCCO1
→ 0.0%	0%	17%	x
Cc1cccc(N=Nc2cnc(N)s2)c1
→ 4.0%	-55%	2%	-5
Cc1ccc(NC(=O)CCC(=O)N/N=C/c2cccs2)cc1
→ -1.1%	-3%	-17%	-2
COc1ccc(C(=O)Nc2ccc3nc(N4CCCCC4)cc(C)c3c2)cc1OC
→ -1.0%	-7%&-6%	14%	-9
